Source: PubChem BioAssay (National Center for Advancing Translational Sciences (NCATS))
Cruzain inh noDet: inhibitors of Trypanosoma cruzi cruzain without detergent; P25779; purified cruzain, Z-FR-AMC fluorescence, no detergent; Potency, µM, for the others: max response, negative = inhibition, hits mostly inhibitors; hit rate 2.3% among 200,000; AID 1476; active means well fitted curve in the direction sought with a large enough effect; inconclusive means small, poorly fitted or top-dose-only effect, or another doubt; inactive means no such curve, though single readings can be large; an effect the other way counts as inactive or inconclusive;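 further: plate controls were enzyme without inhibitor for no effect and buffer without enzyme for full effect; nearly all actives have a fitted effect of over 40% in size; top concentration of the series not given in the record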
Target sequence (P25779 123-467 limits assumed): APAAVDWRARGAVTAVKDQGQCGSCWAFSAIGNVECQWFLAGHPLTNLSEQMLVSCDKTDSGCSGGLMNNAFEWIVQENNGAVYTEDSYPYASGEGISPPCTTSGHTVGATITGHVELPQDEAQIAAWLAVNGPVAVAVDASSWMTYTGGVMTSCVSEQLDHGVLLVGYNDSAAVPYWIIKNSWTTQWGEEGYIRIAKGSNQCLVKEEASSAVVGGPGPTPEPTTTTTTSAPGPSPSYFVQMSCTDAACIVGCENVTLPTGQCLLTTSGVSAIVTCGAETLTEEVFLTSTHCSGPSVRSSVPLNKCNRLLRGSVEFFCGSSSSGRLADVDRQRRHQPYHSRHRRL
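Purified cruzain at 1.5 nM, pre-incubated 15 min with compound at room temperature in 100 mM sodium acetate pH 5.5, 5 mM DTT, 0.00005% Triton X-100. Reaction started with 2 uM Z-FR-AMC; AMC fluorescence increase over 60 s gives rate.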
SARS PLpro yeast: inhibitors of SARS-CoV papain-like protease in yeast. S. cerevisiae expressing SARS-CoV PLpro, growth rescue; control for the full effect not named in the record. Potency, µM (doses to about 32.9 µM), inactives show top-dose activity, positive = growth rescue. hit rate 0.19% among 330,000. AID 485353; further: 0% is about no effect; nearly all actives have a fitted effect of over 55% in size; growth read by luminescence after 48 h
Lassa entry inh: inhibitors of Lassa virus binding or cell entry | Lassa virus pseudotype entry inhibition, cell reporter; control for the full effect not named in the record | Potency, µM (series often up to 37.9 µM), inactives show at the top dose activity change, negative = inhibition, most hits filed as inhibitors | hit rate 1.2% among 300,000 | AID 540256; active means well fitted inhibition curve with a large enough effect; inconclusive means small, poorly fitted or top-dose-only effect, or effect the other way; inactive means flat fitted curve, though single readings scatter; tested in HEK293 cells; further: on the % scale 0 is the no-effect control and ±100 the full control effect; nearly all actives have a fitted effect of over 50% in size; luciferase read-out
NS1 inh: influenza NS1 inhibition. S. cerevisiae slowed by influenza A NS1, growth recovery by OD600. Potency, µM (highest dose often 46.1 µM), for the others: at the top dose activity, positive = more growth. hit rate 0.4% among 270,000. AID 2326; further: actives are rising curves; nearly all actives have a fitted effect of over 50% in size
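OD600 was taken as the measure of yeast growth restored by compound in an NS1-expressing S. cerevisiae strain. Cells had been washed out of glucose medium and diluted 1:100 into galactose -URA medium, pH 6.0.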
RE007 growth inh: less growth of the S. pombe RE007 Vpr strain. S. pombe RE007 Vpr strain, BacTiter-Glo ATP luminescence, 24 h; control for the full effect not named in the record. Potency, µM (top dose mostly 92.2 µM), for inactives: at the highest dose activity change, negative = less growth. hit rate 0.21% among 360,000. AID 651644; active = well fitted falling curve with a large enough effect; inconclusive = small, poorly fitted or top-dose-only effect; inactive = no such curve, though single readings can be large or run the other way;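 further: on the % scale 0 is the no-effect control and ±100 the full control effect; nearly all actives have a fitted effect of over 50% in size; the assay follows cell death caused by Vpr and the record does not say whether a fall means rescue or toxicity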
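Fission yeast RE007 carrying one integrated HIV-1 vpr copy, seeded at OD 0.01 in PMG+AL medium with 23 nL pinned compound. Grown 24 h at 30 degrees; viability read by BacTiter-Glo luminescence after 5 min.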
StopGo reporter: lowers the luciferase signal of an FMDV 2A StopGo reporter. human cells with a luciferase reporter of 2A StopGo recoding; control for the full effect not named in the record. Potency, µM (doses to about 57.9 µM), for inactives: at the top dose signal change, negative = less light. hit rate 1.2% among 410,000; active = well fitted falling curve with a large enough effect; inconclusive = small, poorly fitted or top-dose-only effect; inactive = no such curve, though single readings can be large or run the other way; tested in HEK293T cells; further: on the % scale 0 is the no-effect control and ±100 the full control effect; nearly all actives have a fitted effect of over 45% in size; luciferase light after 4 h
Marburg entry inh: blocks Marburg virus binding to or entry into cells | AID 540276 | Potency, µM (titrated, usually from 37.8 µM), without a hit: at the top dose activity change, negative = inhibition, most hits filed as inhibitors | hit rate 1.8% among 300,000 | Marburg virus pseudotyped entry inhibition, cell reporter; control for the full effect not named in the record; about a third of the inactives were read at about 46 µM; active = well fitted inhibition curve with a large enough effect; inconclusive = small, poorly fitted or top-dose-only effect, or effect the other way; inactive = flat fitted curve, though single readings scatter; tested in HEK293 cells; about a fifth of its hits are not listed in these tables; further: on the % scale 0 is the no-effect control and ±100 the full control effect; luciferase read-out
Cruzain Triton: cruzain (T. cruzi) inhibition with detergent; P25779; purified cruzain, Z-FR-AMC fluorescence, 0.01% Triton; Potency, µM, for the others: max response, negative = inhibition, most hits filed as inhibitors; hit rate 0.43% among 200,000; active means well fitted curve in the direction sought with a large enough effect; inconclusive means small, poorly fitted or top-dose-only effect, or another doubt; inactive means no such curve, though single readings can be large; an effect the other way counts as inactive or inconclusive;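 further: plate controls were neutral wells for no effect and buffer without enzyme for full effect; nearly all actives have a fitted effect of over 40% in size; top concentration of the series not given in the record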
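Z-FR-AMC hydrolysis (2 uM substrate) by cruzain (1.5 nM) monitored kinetically at ex 360/em 450 nm after 15 min room-temperature compound exposure; 0.01% Triton X-100, pH 5.5, 5 mM DTT.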
* = called active by the depositor; ? = inconclusive; / = not tested or not shown; & = joins results of further samples; [ ] = remark or other dose. Unless noted, the call rests on the fitted dose curve; in most records, active means well fitted rising curve with a large enough effect; inconclusive means small, poorly fitted or top-dose-only effect; inactive means no such curve, though single readings can be large or run the other way. Potency means the concentration at half of the fitted maximal effect. Hits appear at their usual frequency. Share with any hit: about 4.7%.

SMILES | Cruzain inh noDet | SARS PLpro yeast | Lassa entry inh | NS1 inh | RE007 growth inh | StopGo reporter | Marburg entry inh | Cruzain Triton
O=C(O)C1CCCCC1C(=O)Nc1cc(C(F)(F)F)ccc1Cl (configuration not stated) | / | 0% | / | -2% | 19% | -9% | / | /
CN1CCN(S(=O)(=O)c2ccc(NC(=O)c3ccccc3Cl)cc2)CC1 | / | -1% | 28%[46.1 µM] | -13% | -6% | 3% | 8%[46.1 µM] | /
COc1ccc(C(=O)N2CCNC(=O)C2CC(=O)Nc2ccc(C)cc2)cc1 (configuration not stated) | / | 1% | -2% | / | 8% | -2% | -6%[46.1 µM] | /
CC(C)CCOc1cccc(OCC(=O)N(C)C2CCS(=O)(=O)C2)c1 (configuration not stated) | 17% | 4% | -10% | 0% | -5% | ? | -6% | -1.7%
O=C(O)C1CCCCC1C(=O)NCCc1c[nH]c2ccccc12 (configuration not stated) | 0% | -2% | 2% | -5% | -14% | -12% | 12%[46.1 µM] | -1.6%
CNC(=O)c1cc(S(=O)(=O)N(C)C)ccc1Cl | -8% | 3% | 7% | 9% | 15% | -18% | 14% | -0.2%
COc1ccc(-c2nc(CCNC(=O)c3ccccc3)cs2)cc1OC | 1% | / | ? | / | / | 0% | / | -6.9%
Cc1ccc2c(c1)N1C(=O)c3ccccc3C1C1=C(CC(C)(C)CC1=O)N2 (configuration not stated) | 25% | -1% | 11% | 19% | -8% | -9% | 20% | -5.2%
O=C(Nc1cccc2cccnc12)c1ccc(Br)cc1Br | / | -3% | 3% | -11% | 5% | 6% | 8% | /
O=c1cc(-c2ccccc2)nc2nc(CCc3ccccc3)[nH]n12 | ? | 6% | 10% | 1% | -7% | -1% | 4% | -7.1%
CCc1c(CN2CCN(c3cccc(C)c3)C(C)C2)csc1C (configuration not stated) | -5% | / | ? | / | / | -14% | / | -1.4%
O=C(CSc1nc2c([nH]c3ccccc32)c(=O)n1-c1ccccc1)c1ccccc1 | -19% | / | ? | / | / | -3% | / | -1.9%
CCOC(=O)c1c(O)c2ccccc2n(C)c1=O | / | 0% | ? | -2% | -13% | -7% | 17%[46.1 µM] | /
O=C(COC(=O)c1ccccc1F)Nc1ccc(S(=O)(=O)N2CCOCC2)cc1 | / | -5% | 16% | / | 12% | 1% | 1% | /
O=C1NC2(CCCCO2)CO1 (configuration not stated) | / | 5% | / | 9% | -9% | -27% | / | /

One compound at a time (already shown).
CNC(=O)c1cc(S(=O)(=O)N(C)C)ccc1Cl as listed: Cruzain inh noDet = -8%; SARS PLpro yeast = 3%; Lassa entry inh = 7%; NS1 inh = 9%; RE007 growth inh = 15%; StopGo reporter = -18%; Marburg entry inh = 14%; Cruzain Triton = -0.2%
O=C(O)C1CCCCC1C(=O)Nc1cc(C(F)(F)F)ccc1Cl (configuration not stated) as listed: Cruzain inh noDet = /; SARS PLpro yeast = 0%; Lassa entry inh = /; NS1 inh = -2%; RE007 growth inh = 19%; StopGo reporter = -9%; Marburg entry inh = /; Cruzain Triton = /

Other results:
SMILES | Cruzain inh noDet | SARS PLpro yeast | Lassa entry inh | NS1 inh | RE007 growth inh | StopGo reporter | Marburg entry inh | Cruzain Triton
COc1cccc(CN2CC(C(=O)NCCCn3cccn3)CCC2=O)c1 (configuration not stated) | / | 5% | -19% | 6% | -8% | -1% | 6%[46.1 µM] | /
Cc1ccc(S(=O)(=O)N/N=c2\sc3ccccc3n2C)cc1 | ? | -24% | 0% | 2% | 9% | -11% | -14% | 0.6%
Cc1c(C(=O)N2CCCc3ccccc32)oc2ccccc12 | / | -8% | 1%[46.1 µM] | -57% | -3% | 0% | -20%[46.1 µM] | /
CC1CCCCC1NS(=O)(=O)c1ccc2c(c1)CC(=O)N2C (configuration not stated) | / | -1% | / | 4% | 17% | 52%[activator] | / | /
COc1ccc(C(=O)Nc2cnc3ccccn3c2=O)cc1 | -11% | -1% | 27%[46.1 µM] | -2% | 10% | 57%&5%[activator] | / | -7.3%
CCOc1ccc(CNC(=O)c2ccc3nc(C(C)C)oc3c2)cc1 | -11% | / | -29%[46.1 µM] | / | / | -15% | / | -1.6%
O=S(=O)(c1cnc(Cl)c(Cl)c1)N1CCc2ccccc21 | / | -1% | / | 3% | 30% | ? | / | /
O=C(NCc1ccccn1)c1cc2c(ccc3ccccc32)oc1=O | / | 0% | / | 1% | -6% | -7% | / | /
CCn1c(CC(=O)Nc2ccccc2C)nnc1SCC(=O)NC1=NCCS1 | / | 2% | ? | 8% | 9% | 23% | ? | /
NC(=O)CC(NC(=O)c1ccc(Br)cc1)c1ccc(NC2CCCCC2)c([N+](=O)[O-])c1 (configuration not stated) | / | -4% | / | 3% | 3% | -3% | / | /
Cc1occc1C(=O)NN1C(=O)C2C3CCC(O3)C2C1=O (configuration not stated) | -3% | -4% | 0% | 1% | 4% | -9% | -3% | 0.5%
N#C/C(=C\c1cn[nH]c1-c1ccccc1)C(=O)NC1CCCCCC1 | 6% | 3% | -20% | 12% | -3% | -12% | ? | -9.7%
CC(=O)c1sc2nc(-c3ccc(C)cc3)c3c(c2c1N)CCCC3 | 8% | -7% | ? | 21% | 0% | -24% | ? | -7.1%
COc1cc(C(=O)NCc2cc(C)nc3ccccc23)cc(OC)c1OC | / | 2% | 0% | / | -13% | ? | -18% | /
O=C(Nc1ccc(O)c(-c2nc3ccccc3s2)c1)c1cccs1 | ? | 1% | 3% | 7% | -15% | -18% | -4% | -2.1%
CC(=O)Nc1ccc(S(=O)(=O)N2CCN=C2SCc2cccc(C)c2)cc1 | / | -6% | ? | -38% | 13% | ? | -26% | /
COc1cc(C(=O)NCC(=O)OCC(=O)N2CCc3ccccc32)cc(OC)c1OC | / | 2% | 16% | / | -5% | -9% | ? | /
CC12CN3CC(C)(CN(C1)C3c1c[nH]c3ccccc13)C2=O (configuration not stated) | / | 1% | 1% | 2% | -3% | -12% | -6%[46.1 µM] | /
CCCCC(=O)Nc1c(-c2ccc(OC)c(OC)c2)c(=O)c2ccccc2n1C | / | 0% | / | 1% | 9% | -17% | / | /
Clc1ccc(-c2ccc(C=Nc3ccc(N4CCOCC4)cc3)o2)cc1 | 3% | -16% | -5% | 1% | -19% | -7% | -17% | -4.7%
O=c1[nH]c(=S)n(-c2ccc(Br)cc2)c(O)c1C=Nc1ccc(N2CCOCC2)cc1 | 10% | -12% | 0% | 7.9µM* | -2% | -17% | -5% | -10%
CCN(CCNS(=O)(=O)c1ccc2c(c1)oc(=O)n2C)c1ccccc1 | -8% | -2% | / | 0% | -5% | 40%[activator] | / | 0.4%
O=C(CCN1CCOCC1)NNC(=O)Nc1cccc(Cl)c1 | / | -8% | 15%[46.1 µM] | 8% | -8% | -6% | 2%[46.1 µM] | /
O=C(Oc1ccccc1)c1ccc(-n2cnnn2)cc1 | -4% | 7% | 18% | -7% | -7% | 10% | 7%[46.1 µM] | 4.3%
CCn1c(C)nnc1SCC(=O)NC1CCCC1 | / | -1% | -1%[46.1 µM] | -9% | -10% | 12% | ? | /
Cc1cc(NC(=O)CCC(=O)N(CCC(C)C)CC(=O)NCC2CCCO2)no1 (configuration not stated) | 11% | 0% | 15% | -8% | 4% | 18% | -28% | 9.2%
CC1C(c2cccs2)=[N+]([O-])C(C)(C(=O)c2ccc(Cl)cc2)N1O (configuration not stated) | / | / | 7% | / | -13% | -11% | -21%[46.1 µM] | /
CCc1nc(SCC(=O)N2CCc3cc(OC)c(OC)cc3C2)c(C#N)cc1C | / | / | -15% | / | 7% | -28% | -24% | /
CCOc1ccccc1-c1n[nH]c(=S)o1 | -7% | 1% | -1% | 1% | -13% | 6% | 15% | 0.9%
Cc1ccc(C(=O)N2CCN(S(=O)(=O)N3CCOCC3)CC2)cc1 | / | -1% | 16%[46.1 µM] | 2% | -2% | -13% | -4%[46.1 µM] | /
Cc1ccc2c(c1C)OC(=O)CC2(C)C | 3% | 3% | 18% | 14% | 1% | -26% | ? | -0.1%
CCN(CC)C(=O)CN(c1cccc([N+](=O)[O-])c1)S(=O)(=O)c1ccccc1 | / | 0% | 12%[46.1 µM] | -2% | 110% | -6% | 6%[46.1 µM] | /
COc1ccccc1OCC(=O)NCCCn1ccnc1 | / | 2% | / | 7% | -2% | -14% | / | /
COc1ccc2nc(N3CCCC(C(=O)NCCCN4CCN(C)CC4)C3)sc2c1 (configuration not stated) | -7% | -19% | 52% | 4% | 26% | 0% | -16% | -1.1%
CCc1ccc(NC(=O)c2oc3c(c2C)-c2[nH]ncc2CC3)cc1 | ? | / | 0%[46.1 µM] | / | / | 32%[activator] | ? | -9.1%
Cc1cccc(Oc2ncccc2[N+](=O)[O-])c1C | / | / | -6% | / | 20% | -13% | ? | /
CCOC(=O)c1nc(N2CCN(c3ccc(F)cc3)CC2)c2c(C)noc2n1 | -5% | / | 6%[46.1 µM] | / | / | -12% | / | -2.5%
N#Cc1c(Cn2cncn2)nc(=O)n(-c2ccccc2)c1N | / | 0% | -9%[46.1 µM] | 9% | -5% | 2% | -6%[46.1 µM] | /
C=CCn1c(SCc2ccc(OC)cc2)nnc1-c1cccnc1 | -4% | -7% | 28% | ? | 2% | 12% | 3% | -2.6%
CCCCSc1nnc2c(n1)OC(c1ccc(C)s1)Nc1ccccc1-2 (configuration not stated) | -4% | / | 28%[46.1 µM] | / | / | 0% | 27%[46.1 µM] | -7.0%
CC(=O)Nc1ccc(NC(=O)C(C)OC(=O)C(C)SCC(=O)Nc2ccc(C)cc2)cc1 (configuration not stated) | / | 3% | ? | / | -1% | -5% | 0% | /
CC(/C=N/NC(=O)c1ccc(CN2c3cccc4cccc(c34)S2(=O)=O)cc1)c1ccccc1 (configuration not stated) | 10µM* | 4% | ? | ? | 4% | -15% | ? | -5.0%
CCCc1cc(=O)[nH]c(SCC(=O)Nc2cc3c(cc2C(C)=O)OCO3)n1 | 4% | -4% | -5% | 7% | 22% | -20% | 10% | 5.1%
O=C(CSc1nnc(SCc2ccccc2)s1)NNC(=S)Nc1ccccc1 | 0% | 13% | -3% | 2% | -20% | -29% | ? | -5.2%
